Compound activity: PubChem BioAssay, National Center for Advancing Translational Sciences (NCATS)
Sfp PPTase inh: Sfp phosphopantetheinyl transferase inhibition; Q9F4F7; Biochemical Sfp PPTase activity, qHTS; Potency, µM, inactives show max response, negative = inhibition, hits mostly inhibitors; actives 3.5% (n = 310,000); AID 1490; active = well fitted inhibition curve with a large enough effect; inconclusive = small, poorly fitted or top-dose-only effect, or another doubt; inactive = no such curve, though single readings can be large or run the other way;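 note: the enzyme is Sfp with the accession as filed and its product quenches rhodamine fluorescence; potency is the fitted concentration of half-maximal effect; 0% = enzyme reaction without inhibitor and -100% = no enzyme wells; top concentration of the series not given in the record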
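With Hepes-Na pH 7.6 buffer containing 10 mM MgCl2, Sfp (15 nM) modified BHQ-2-YbbR (12.5 uM) using rhodamine-CoA (5 uM). Two reads 30 minutes apart at 525/598 nm yielded each well's rate.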
PINK1 expr mod: changes PINK1 expression. PINK1 immunofluorescence, high-content cytometry, 24 h. Potency, µM (highest dose often 76.6 µM), for the others: top-dose activation (PINK1 increase), usual class: activators. actives 0.2% (n = 410,000); active = well fitted activation curve with a large enough effect; inconclusive = small, poorly fitted or top-dose-only effect; inactive = flat fitted curve, though single readings scatter; cell line not stated here;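 note: potency is the fitted concentration of half-maximal effect; % of control where 0% means no effect; nearly all actives have a fitted effect of over 65% in size; a mitochondrial uncoupler was the plate control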
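Measures PINK1 amount and localization on or inside mitochondria by immunofluorescence. Stable cells get compounds at 5 concentrations for 24 hours before fixation and staining; CCCP controls included.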
D2 ag: agonists of human D2 dopamine receptor (beta-arrestin); activation, % (test concentration not listed); actives 0.084% (n = 360,000); P14416; DiscoveRx PathHunter D2 beta-arrestin, luminescence, 90 min; 100% = 57 uM dopamine signal; AID 624465; in the data active = activation above about 40%; inconclusive = about 15% to 40%; inactive = below about 15%; note: compound concentration not given in the record; the text of the record calls up to 30% inactive
Target sequence (P14416 whole entry, looked up): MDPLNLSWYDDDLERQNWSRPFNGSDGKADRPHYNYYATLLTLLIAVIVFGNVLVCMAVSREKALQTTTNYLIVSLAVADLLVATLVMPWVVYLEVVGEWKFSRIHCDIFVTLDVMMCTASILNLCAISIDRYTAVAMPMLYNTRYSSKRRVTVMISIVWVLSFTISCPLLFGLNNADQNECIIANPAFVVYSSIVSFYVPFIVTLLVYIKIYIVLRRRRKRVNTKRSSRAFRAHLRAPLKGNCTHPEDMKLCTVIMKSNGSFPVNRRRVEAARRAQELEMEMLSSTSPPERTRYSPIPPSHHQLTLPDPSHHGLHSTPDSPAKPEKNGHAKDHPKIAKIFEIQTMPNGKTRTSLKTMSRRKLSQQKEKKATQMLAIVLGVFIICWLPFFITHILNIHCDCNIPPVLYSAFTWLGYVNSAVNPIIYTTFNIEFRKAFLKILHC
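Agonist mode: compounds alone added to overnight-plated D2 PathHunter cells for 90 min at 37 C, with 57 uM final dopamine (EC100) defining full response. Beta-arrestin recruitment detected by chemiluminescent reagent, read after 1 h at ambient temperature.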
gsp agonist: agonists of gsp mutant (McCune-Albright syndrome). gsp mutant cells, cAMP HTRF, 30 min; control for the full effect not named in the record. Potency, µM (series often up to 76.9 µM), for inactives: at the top dose activation (cAMP increase), actives largely listed as activators. actives 0.13% (n = 340,000). AID 624287; active = well fitted activation curve with a large enough effect; inconclusive = small, poorly fitted or top-dose-only effect, or another doubt; inactive = no such curve, though single readings can be large or run the other way; cell line not stated here;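 note: phosphodiesterase inhibitor Ro 20-1724 added with compounds to block cAMP breakdown; potency is the fitted concentration of half-maximal effect; nearly all actives have a fitted effect of over 60% in size; about a fifth of the inactives were tested at one dose only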
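Cells in DMEM/10% FBS with G418 were pretreated with compounds in DMSO plus […] (300 uM stock) for 30 min at 37C. cAMP was measured by HTRF (cAMP-d2 plus anti-cAMP antibody-K) after 30 min at room temperature.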
Menin MLL FP FL: menin-MLL binding inhibition, fluorescein peptide; Fluorescence polarization, fluorescein-MLL peptide displacement from menin; FP activity change, % at 61.4 µM; 290,000 tested, under 10 active; inconclusive = falling polarisation curve, or a change in total fluorescence; inactive = total fluorescence flat and polarisation flat or rising; no compound was filed as active; the % refers to the polarisation; negative = inhibition;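 note: % of control where 0% means no effect; inhibitors lower the polarisation; unlabelled MLL peptide was the positive control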
gsp antagonist: antagonists of gsp mutant (McCune-Albright syndrome); gsp-mutant cells, cAMP HTRF, 30 min; control for the full effect not named in the record; Potency, µM (highest dose often 76.9 µM), for inactives: at the top dose activity change, negative = inhibition, usual class: inhibitors; actives 0.4% (n = 340,000); active = falling curve of any shape with a large fitted effect; inconclusive = falling curve, mostly with a smaller effect; inactive = flat or rising curve; cell line not stated here;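 note: intracellular cAMP measured with PDE inhibitor Ro 20-1724 present during compound exposure; potency is the fitted concentration of half-maximal effect; % is set by controls: 0 for no effect and ±100 for the full control effect; nearly all actives have a fitted effect of over 65% in size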
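Cells in G418 medium, seeded 16-24 h, 37C; buffer exchange to DPBS + 1 mM CaCl2, 0.5 mM MgCl2, 0.05% BSA; cpds in DMSO + […] (300 uM stock), 30 min 37C; HTRF cAMP detection.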
ClpP mod: qHTS Assay for Activators of ClpP. Potency, µM (top dose mostly 57.5 µM), for the others: at the top dose activity change, negative = active. purified B. subtilis ClpP, FRET peptide cleavage, 20 min. actives 1.9% (n = 340,000). AID 651965, 2013. ATP-dependent Clp protease proteolytic subunit (Bacillus subtilis (strain 168)), P80244; active = well fitted falling curve with a large enough effect; inconclusive = small, poorly fitted or top-dose-only effect; inactive = no such curve, though single readings can be large or run the other way; note: potency is the fitted concentration of half-maximal effect; the source files actives as falling curves though it sought activators and does not explain the sign; nearly all actives have a fitted effect of over 65% in size; many hits overshoot -100%
Target sequence (P80244 whole entry, looked up): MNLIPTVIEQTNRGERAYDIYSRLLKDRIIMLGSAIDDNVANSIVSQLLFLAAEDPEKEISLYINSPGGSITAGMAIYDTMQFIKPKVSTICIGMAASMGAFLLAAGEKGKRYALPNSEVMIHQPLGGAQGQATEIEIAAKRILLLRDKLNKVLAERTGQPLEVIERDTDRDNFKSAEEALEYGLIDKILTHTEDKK
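Buffer: 100 mM Tris/HCl pH8, 100 mM KCl, 0.05% low protease BSA, 2.5% glycerol, 0.01% Tween-20. ClpP 10 microg/mL final; 20 min RT; delta FRET normalized to ADEP and DMSO controls.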
* hit, by the source's call; ? = inconclusive; . = no result given; & = joins results of further samples; [ ] = dose if it differs, or a comment.

SMILES	Sfp PPTase inh	PINK1 expr mod	D2 ag	gsp agonist	Menin MLL FP FL	gsp antagonist	ClpP mod
CC1(C)Nc2ccc(O)cc2-c2c1ssc2=S	44.7µM*	-1.1%	2.5	-16.4%	2.6	-1.6%[15.4 µM]	0.5%
O=C(CCCN1C(=O)c2ccccc2C1=O)NC1CCCCCC1	5.1%	0.5%	-4.3	11.4%	2.2	-4.8%	2.5%
CCOC(=O)C1CCN(C(=O)C2CCN(S(=O)(=O)c3c(C)noc3C)CC2)CC1	-3.1%	1.9%	8.1	1.3%	-0.1	-12.3%	-0.1%
COc1ccc(C(=O)N2[C@@H](C(C)C)COc3cc(Br)ccc3S2(=O)=O)cc1	.	10.1%	-2.0	.	.	0.7%	-0.1%
NNC(=O)C(=O)Nc1ccc(O)cc1	6.8%	1.6%	-0.7	-0.9%	-0.1	9.4%	-0.9%
COc1cccc(/C=C/C(=O)N2CC(C)OC(C)C2)c1OC (stereo unspecified)	4.6%	-0.1%	-2.3	20.9%	-3.7	-3.4%	.
CCOc1ccc(Br)cc1S(=O)(=O)NC1=NCCCCC1	.	0.9%	-0.5	13.1%[15.4 µM]	.	-6.8%	-1.2%
O=[N+]([O-])c1ccc(O)c(/C=N/n2c(-c3ccccc3)n[nH]c2=S)c1	?	0.2%	-6.9	0.7%[15.4 µM]	-0.2	-20.6%	0.4%
COc1cc(/C=C/C(=O)OC(C)C(=O)Nc2c(C)n(C)n(-c3ccccc3)c2=O)ccc1O (stereo unspecified)	.	-0.4%	-4.1	-0.3%[15.4 µM]	.	3.6%	-5.5%
Cc1nn(-c2ccc(Cl)nn2)c(=O)c2ccccc12	6.9%	0.7%	-4.8	-4.7%[15.4 µM]	-0.1	2.5%	.
CC(C)Cc1cc(C(=O)Nc2ccc(Br)cc2)no1	9.4%	13.2%	-3.2	-0.9%	-1.1	-3.1%	-3.2%
CCCCCc1cc(=O)oc2c(C(CCN3CCCCC3)c3ccc(OC)cc3)c(OC)cc(OC)c12 (stereo unspecified)	?	-0.5%	0.8	.	1.6&1.1	-1.5%	4.2%
CCCS(=O)(=O)NC(=O)C1(C)CCN(C(=O)c2cc(-c3cccs3)oc2C)C1 (stereo unspecified)	.	-0.4%	-6.8	.	.	.	-11.4%
O=c1c2ccccc2nc(-c2ccccc2Cl)n1O	7.2%	0.1%	-6.2	0.2%[15.4 µM]	-0.4	-20.7%	.
Cc1cccc(N(C(=O)Cc2cccs2)C(C(=O)NC2CCCC2)c2ccncc2)c1 (stereo unspecified)	14.2%	3.3%	-0.3	-15.7%[15.4 µM]	-0.9	0.5%	?
CCOc1ccccc1OCCCOc1ccc(C)cc1Br	-6.8%	18.6%	-2.6	-17.0%	4.1	-1.9%	-1.9%
Cc1ccc(S(=O)(=O)N(C)C[C@H]2Oc3cc(C#Cc4ccccc4)ccc3S(=O)(=O)N([C@H](C)CO)C[C@@H]2C)cc1	.	0.2%	-9.7	-28.9%	.	.	?
CC(=O)c1ccc(NC(=O)c2cc(CC(C)C)nc3ccccc23)cc1	9.6%	5.5%	-3.8	10.0%	1.1	-7.0%	-2.3%
Cc1ccc(C)c(OCCC(=O)Nc2ccccc2C(=O)NC2CC2)c1	.	13.4%	-4.5	-8.6%	.	-5.1%	.
COc1cc(SC)ccc1C(=O)NCCOc1c(C)cc(C)cc1C	50.1µM*	-2.0%[38.3 µM]	-1.4	-43.5%[inhibitor]	-0.9	-20.3%	-1.1%
COc1cccc(-c2nc(S(=O)(=O)c3ccccc3)c(N3CCOCC3)o2)c1	?	.	-1.8	-30.9%	-0.8	-10.6%	-0.3%
CCC(=O)Nc1c(S(=O)(=O)c2ccccc2)c2nc3ccccc3nc2n1Cc1ccccc1	5.7%	-1.2%	-1.0	8.8%	6.0	-20.0%	14.1µM*
Cc1c(/C=N/NC(=O)COc2ccccc2[N+](=O)[O-])c2ccccc2n1C	-13.3%	6.6%	-3.7	-15.6%	1.6	-2.5%	0.6%
O=C1C=C(c2ccccc2)C[C@@H](c2ccc(Cl)cc2)C1	.	2.9%	5.1	12.0%	.	-4.0%	-0.9%
CC1(C#CC[N+]2(C)CCCCC2)CCC2C(O1)c1ccccc1OC2(C)C (stereo unspecified)	56.2µM*	0.0%	-5.9	?	-1.8	9.2%	1.8%
COc1cccc(NC(=O)N2CCc3nc(NCc4cccc(Oc5ccccc5)c4)ncc3C2)c1	.	1.3%	1.5	.	.	.	-13.0%
CCOC(=O)C1=CC[C@@H](c2ccc(OC)cc2)N(S(=O)(=O)c2ccc(C)cc2)[C@H]1CC	.	1.3%	-4.9	.	.	.	-5.2%
CNC(=S)N(Cc1ccco1)Cc1cc2cc3c(cc2[nH]c1=O)OCCO3	28.2µM*	12.6%	-1.7	?	6.7	-5.8%	?
COc1ccc(OCC(=O)N2CCCC2=O)c([N+](=O)[O-])c1	2.6%	-0.1%	-1.6	5.4%	.	5.6%	2.9%
CC1Cc2ccccc2N1C(=O)COC(=O)/C=C/c1cccc(F)c1 (stereo unspecified)	.	0.2%	2.8	-29.7%	.	0.5%	-0.2%
CCC(Sc1nc2cc(OC)c(OC)cc2c(=O)n1CCc1ccc(OC)c(OC)c1)C(=O)NCCOC (stereo unspecified)	0.4%	1.5%	-0.8	3.8%[15.4 µM]	-2.7	-22.1%	.
Cc1sc2nc(CSCC(=O)NC3(C#N)CCCCC3)[nH]c(=O)c2c1C	.	0.2%	-1.4	?	.	7.5%	-5.7%
CCOC(=O)c1c(C)[nH]c(C(=O)COC(=O)c2ccccc2NC(=O)c2ccco2)c1C	20.5%	-1.1%	-0.7	-25.8%	8.8	2.6%	121.2%
Cc1ccc([C@@H]2CC=C(C(=O)O)[C@H](c3ccc(Br)cc3)N2S(=O)(=O)c2ccccc2C)cc1	.	-0.2%	-0.2	.	.	-12.4%	2.3%
CC(C)N1CCN(C(=O)c2cccc(Cl)c2)CC1	-16.4%	4.6%	0.5	1.4%	0.2	12.2%	.
C=C1CSc2nc(=O)c3c4c(sc3n21)CCCC4	-11.4%	-1.1%	-2.8	?	-2.0	4.2%	-9.0%
CCCCn1c(N)c(N(CC(C)C)C(=O)c2ccc(OCc3c(C)noc3C)cc2)c(=O)[nH]c1=O	.	0.0%	0.6	27.0%	.	15.2%	-0.8%
CCc1ccc(-n2c(SCC(=O)N3Cc4ccccc4CC3C(=O)O)nnc2-c2ccncc2)cc1 (stereo unspecified)	?	0.2%	-1.6	-35.5%	0.4	-9.6%	-3.1%
CC(C)(C)C(=O)O/N=C(\N)c1ccc(Oc2cc(Cl)cc(Cl)c2)c([N+](=O)[O-])c1	-5.9%	5.4%	2.2	-40.4%[inhibitor][15.4 µM]	2.0	3.8%	.
CCc1nc2ccc(C(=O)N3CCN(S(=O)(=O)CC)CC3)cn2c1N(C=O)Cc1ccc(OC)cc1	.	1.7%	-3.6	.	.	.	-5.6%
O=C(CS(=O)(=O)c1ccccc1)Nc1ccc(Cl)cn1	4.9%	0.9%	-2.5	8.5%	.	-2.3%	-0.9%
COc1cc(C(=O)COC(=O)c2c(C)noc2C)cc(OC)c1OC	.	1.0%	-3.1	-20.4%	.	-5.3%	-0.3%
O=C(Nc1nc2c(s1)CCCC2)c1cc2n(n1)C(C(F)(F)F)CC(C1CC1)N2 (stereo unspecified)	15.5%	2.2%	-3.1	34.6%	-0.2	-1.2%	-13.5%
CNC(=S)Nc1cc(C(=O)N2CCCC2)ccc1N1CCCC1	-9.8%	-0.2%	-3.0	-29.5%	-0.3	-10.1%	-0.1%
Cc1ccc(CNC(=O)CNC(=O)c2c(C)nn(C)c2Cl)cc1	-2.7%	11.6%	-1.2	-2.6%	0.7	5.6%	1.1%
CC(=O)c1ccc(NC(=O)c2ccc([N+](=O)[O-])o2)cc1	20.0%	0.7%	0.7	?	-0.9	-0.4%	-0.7%
O=C(Nc1ccc2snnc2c1)Nc1cccc2ccccc12	-27.9%	?	4.9	14.4%	-2.0	50.1µM*	-5.3%
C=CCNc1nc(NCC)nc(N2CCOCC2)n1	10.4%	-0.2%	-1.8	9.5%	56.4[activator]	7.8%	0.4%
c1ccc2c(c1)ncn2-c1cncnc1	.	13.4%	-3.8	.	.	.	1.8%
COc1ccc(S(=O)(=O)N2CCCCCC2)cc1NC(=O)Cc1ccccc1	15.7%	-1.4%	-4.7	-1.2%[15.4 µM]	-3.7	7.4%	-0.9%
O=C(Nc1nc2c(s1)CCCC2)c1cc(-c2ccccc2)nc2ccccc12	-10.3%	7.1%	-4.6	17.3%	3.1	0.4%	-1.0%
O=C(c1cn(-c2ccccc2)nc1-c1ccc(F)cc1)N1CCOCC1	-3.1%	1.7%	-1.9	2.3%	-0.6	5.3%	0.7%
CCOC(=O)C(NC(=O)Nc1ccc(C(N)=O)cc1)(c1ccccc1)C(F)(F)F (stereo unspecified)	8.1%	0.6%	-0.9	-44.0%[inhibitor]	-4.2	20.0%	-0.7%
CN(CCc1cnn(C)c1)C(=O)CCc1nnc(CCCc2ccccc2)o1	22.5%	5.6%	0.3	14.7%[15.4 µM]	-3.6	2.6%	.
COc1ccc(Nc2nc(-c3c(C)nc4ncccn34)cs2)cc1	17.8µM*	?	-11.4	?	0.3	6.8%	-5.0%
Cc1cccc(OCCCC(=O)Nc2nc3ccccc3[nH]2)c1	20.4%	5.5%	-0.9	12.1%[15.4 µM]	-5.1	-5.3%	0.1%
O=C(OCCN(CCOC(=O)c1ccncc1)S(=O)(=O)c1cccs1)c1ccncc1	-1.5%	0.4%	3.0	-24.5%	5.3	-5.2%	-1.2%
Cc1nn(-c2ccc(Cl)cc2Cl)c(=O)c2ccccc12	5.0%	.	-0.8	-12.2%	1.9	?	-1.9%
CC(=O)N1CCOc2ccc(S(=O)(=O)NCCc3ccc(S(N)(=O)=O)cc3)cc21	3.1%	-0.8%	-1.5	5.9%	.	3.5%	-2.6%
CC(C)C(NC(=O)c1ccc(F)cc1)C(=O)N1CCN(C(=O)c2ccco2)CC1 (stereo unspecified)	.	3.1%	-4.0	1.5%	.	-0.8%	1.0%
Cc1ccc(C)c(SCC(=O)NNC(=O)c2ccccc2)c1	18.4%	0.8%	-1.6	-6.5%[15.4 µM]	2.1	8.2%	.
